# GLA inh pH 4.5 – blocks human alpha-galactosidase A at pH 4.5; P06280; activity change, negative = inhibition, % at 105 µM; 230,000 tested, under 10 active; purified enzyme, 4-MU-alpha-Gal fluorescence, pH 4.5; inconclusive = small, poorly fitted or top-dose-only inhibition, or a rising curve; inactive = flat fitted curve, though single readings scatter; no compound was filed as active;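 further: 0% = full activity with enzyme and -100% = basal without enzyme; dose as in the result columns while the protocol names 77 µM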
# Target sequence (P06280 whole entry, looked up): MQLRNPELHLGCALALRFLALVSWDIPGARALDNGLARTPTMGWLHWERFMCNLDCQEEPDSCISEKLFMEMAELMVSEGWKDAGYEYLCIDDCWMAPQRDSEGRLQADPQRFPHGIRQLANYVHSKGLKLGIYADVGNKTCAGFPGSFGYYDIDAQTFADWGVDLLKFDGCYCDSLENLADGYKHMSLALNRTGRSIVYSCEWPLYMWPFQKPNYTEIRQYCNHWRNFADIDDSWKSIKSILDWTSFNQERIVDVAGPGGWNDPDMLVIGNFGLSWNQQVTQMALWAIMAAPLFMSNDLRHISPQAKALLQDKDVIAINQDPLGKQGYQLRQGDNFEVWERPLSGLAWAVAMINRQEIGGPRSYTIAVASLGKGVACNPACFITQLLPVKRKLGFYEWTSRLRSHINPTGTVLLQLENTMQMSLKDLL
# Active calls of the source: *; ? = inconclusive; & = joins results of further samples. Some of the compounds tested; the hit share may differ from the screen's.
smiles,GLA inh pH 4.5
CCOC(=O)C1=C(C)NC(C)=C(C(=O)OC)[C@@H]1c1cccc([N+](=O)[O-])c1,0.7
COc1ccc(CC(N)C(=O)N[C@H]2[C@@H](O)[C@H](n3cnc4c(N(C)C)ncnc43)O[C@@H]2CO)cc1 (stereo partly specified),0.7
CN(Cc1ccco1)c1cc(-c2ccccc2Cl)ncn1,-1.7
N[C@@H]1C(O)OC(CO)C(O)C1O (stereo partly specified),4.7
O=C(CCCCCN1C(=O)c2cccc3cccc(c23)C1=O)NO,-3.2
COCCNC(=O)[C@H](C)/C=C(\c1cccnc1)C(NC(=O)OCc1ccccc1)c1ccc(C(=O)OC)cc1 (stereo partly specified),-0.5
Cc1cccc(-c2ccc(-c3cc(=O)oc4cc(C)cc(C)c34)cc2)c1,-5.8
CC(=O)[C@]1(O)CCC2C3CCC4=CC(=O)CC[C@@]4(C)C3CC[C@]21C (stereo partly specified),-1.9
C=CC1(C)CC(=O)C2(O)C(C)(O1)C(OC(C)=O)C(O)C1C(C)(C)CCC(O)C12C (stereo unspecified),-2.8&-4.5
Cc1ccc(S(=O)(=O)N2CCC(=O)N([C@H](COCc3ccccc3)Cc3ccccc3)CC2)cc1,-23.4
N=c1ccn2c(n1)OCC1C2O[C@@H](O)[C@H]1O (stereo partly specified),0.2
CN1[C@H]2CC(OC(=O)[C@@H](CO)c3ccccc3)C[C@H]1[C@H]1O[C@H]12 (stereo partly specified),-2.7
Nc1nc2c(nc(Br)n2[C@@H]2O[C@H]3COP(=O)(O)O[C@H]3[C@@H]2O)c(=O)[nH]1,-0.6
CCCCC[C@H](O)/C=C/C=C\CCCCCCCC(=O)O,-2.4
CO/N=C(/C(=O)NC1C(=O)N2C(C(=O)O)=C(CSc3nc(=O)c(O)nn3C)CSC12)c1csc(N)n1 (stereo unspecified),-6.0&6.2
C[C@@]12C[C@@H](O)[C@H]3[C@@H](CCC4=CC(=O)CC[C@]43C)[C@H]1CC[C@H]2C(=O)CO,2.0
CC1(C)O[C@@H]2C[C@H]3[C@H]4C[C@H](F)C5=CC(=O)CC[C@]5(C)[C@@H]4[C@H](O)C[C@]3(C)[C@]2(C(=O)CO)O1,-3.7
CCCCCCNC(=O)Nc1ccc(S(=O)(=O)Nc2ccc(CCNC[C@H](O)COc3ccc(O)cc3)cc2)cc1,-13.5
COCC1=C2c3ccccc3[C@@H]3CNC(=O)C3(C(=O)OC)C[C@@H]2n2c(=O)n(-c3ccccc3)c(=O)n2C1 (stereo partly specified),-8.9&1.0
COc1ccc(C[C@H](N)C(=O)N[C@@H]2[C@H](O)[C@H](n3cnc4c(N(C)C)ncnc43)O[C@@H]2CO)cc1,2.7
C[C@@H](CCCCC(=O)Nc1ccc(C(F)(F)F)cc1)NCCc1cnc[nH]1,-4.1
Cc1cccc([C@H]2[C@@H]3C=CC(C)C[C@@H]3C(=O)N2Cc2ccccc2)c1 (stereo partly specified),-9.0
CCCCCCCCCC(=O)NC(CN1CCOCC1)[C@H](O)c1ccccc1 (stereo partly specified),-3.8
CCCCCC(=O)/C=C/C=C\C/C=C\C/C=C\CCCC(=O)O,-2.0
CCCC/C=C/C(NC(=O)OCc1ccccc1Cl)c1ccccc1 (stereo unspecified),-1.5
COc1c(C)c2c(c(O)c1CC=C(C)CCC(=O)OCCN1CCOCC1)C(=O)OC2,-0.1
CCC/C=C(\CCC)C(NC(=O)c1ccc(C(F)(F)F)cc1)c1ccccc1 (stereo unspecified),-4.8
CCOc1cccc(C(=O)c2ccc(O)c(O)c2O)c1,-1.0
COC(=O)C1C(O)CC[C@@H]2CN3CCc4c([nH]c5ccccc45)C3C[C@@H]12 (stereo partly specified),-5.6&2.7
CCCCC[C@H](O)/C=C/[C@H]1OC(O)C[C@H](O)[C@@H]1C/C=C\CCCC(=O)O (stereo partly specified),1.6
O=C(O)Cc1cccc(OCCCN(Cc2cccc(C(F)(F)F)c2Cl)CC(c2ccccc2)c2ccccc2)c1,-21.6
O=C1c2ccccc2C(=O)c2c(O)ccc(O)c21,4.0
CCCCC/C=C\C/C=C\C/C=C\C/C=C\CCCC(=O)O[C@@H](CO)COCCCCCCCCCCCCCCCC,-12.1
CCC1=C(OC(=O)N(CC)CC)N2C(=O)OC(=NCCOC)[C@]2(C)[C@H]2C1=CC[C@H]1C(=O)N(CC(=O)OC)C(=O)[C@H]12,-0.2
COc1ccccc1-c1cncnc1NCCc1cnc[nH]1,-8.7
CC1C(=O)OC2CC34C5CC(C(C)(C)C)C36C(OC(=O)C6O)OC4(C(=O)O5)C21O (stereo unspecified),11.7
CCCn1c(C)nc2c(NCCN3CCCCC3)nc(C)nc21,-9.7
COc1ccc(-c2cc(=O)c3c(O)cc(O[C@@H]4OC(COC5OC(C)C(O)C(O)[C@@H]5O)C(O)C(O)C4O)cc3o2)cc1 (stereo partly specified),-7.6
C=CCC(C)(O)c1ccco1 (stereo unspecified),4.9
CC[C@H](C)C(=O)O[C@@H]1C[C@H](C)C=C2C=C[C@H](C)[C@@H](CC[C@H]3C[C@@H](O)CC(=O)O3)[C@H]21,5.1
Cc1noc(C)c1-c1ccc2ncnc(NC3CC3)c2c1,-1.3
C=C1OC(CO)(n2cnc3c(N)ncnc32)C(O)C1O (stereo unspecified),0.0
COC(=O)CCCC1=CC2=CC(=O)C(C)(OC(=O)c3ccc(Cl)nc3)C(=O)C2=CO1 (stereo unspecified),-4.5
CCCCCC(=O)/C=C/[C@@H]1[C@@H](C/C=C\CCCC(=O)O)[C@@H](O)C[C@H]1O,-12.2
COC(=O)N[C@H](C[N+](=O)[O-])C(C)(C)C,0.8
Nc1nc2nc(Cl)[nH]c2c(=O)[nH]1,5.4
COc1cccc(CC(=O)N2CCc3nc(-c4ccc(OC)cc4C)c4c(c3C2)CO[C@@H](c2ccccc2)C4)c1,0.1
C=C[C@@H](C)[C@](C)(O)c1ccccc1,0.7
C[N+]1(C)C[C@@H](O)C[C@@H]1C(=O)[O-],6.8
COc1ccc2c3c1OC1CC(O)C=C[C@@]31CCN(C)C2 (stereo partly specified),-0.1

# Part of the list above, with each value named:
compound: COc1ccc(-c2cc(=O)c3c(O)cc(O[C@@H]4OC(COC5OC(C)C(O)C(O)[C@@H]5O)C(O)C(O)C4O)cc3o2)cc1 (stereo partly specified)
  GLA inh pH 4.5: -7.6

compound: Cc1noc(C)c1-c1ccc2ncnc(NC3CC3)c2c1
  GLA inh pH 4.5: -1.3

compound: C[C@@]12C[C@@H](O)[C@H]3[C@@H](CCC4=CC(=O)CC[C@]43C)[C@H]1CC[C@H]2C(=O)CO
  GLA inh pH 4.5: 2.0

compound: COCCNC(=O)[C@H](C)/C=C(\c1cccnc1)C(NC(=O)OCc1ccccc1)c1ccc(C(=O)OC)cc1 (stereo partly specified)
  GLA inh pH 4.5: -0.5

# Later entries.
smiles,GLA inh pH 4.5
COC(=O)N[C@@H](c1cccc(C)c1)C(C(C)=O)C(=O)OC (stereo partly specified),-13.0
CCOC(=O)C1=C[C@@]2(CC)CCCN3CCc4c(n1c1ccccc41)[C@H]32,-11.6&6.9
Cc1cccc(CNc2nc(-c3ccoc3)nc3ccccc23)c1,-14.4
CN1CCc2cc3c(cc2[C@@H]1[C@@H]1C(=O)Oc2c1ccc1c2OCO1)OCO3,-1.4
CCCCC1=CC2=CC(=O)C(C)(OC(=O)c3ccc(Cl)nc3)C(=O)C2=CO1 (stereo unspecified),-12.9
Cc1ccccc1Nc1oc(-c2ccccc2)nc1-c1ccccc1F,-7.0
C[C@H](CO)NC(=O)[C@H]1C[C@@H]1[C@H](NP(=O)(c1ccccc1)c1ccccc1)c1ccccc1,5.1
CC(=O)OCC(=O)[C@]1(O)C(C)CC2C3CCC4=CC(=O)C=C[C@@]4(C)[C@]3(F)C(O)C[C@@]21C (stereo partly specified),0.0
COc1cccc2c1C(=O)c1c(O)c3c(c(O)c1C2=O)C[C@@](O)(C(=O)CO)C[C@@H]3OC1C[C@@H](N)[C@H](O)[C@H](C)O1 (stereo partly specified),-17.9
CCC1=C2CC[C@H]3C(=O)N(C)C(=O)[C@H]3[C@H]2[C@@]2(C)C(=NCC(=O)OC)OC(=O)N2C1=O,-8.7
CCOC(=O)[C@H](CCc1ccccc1)N[C@@H](C)C(=O)N1[C@H](C(=O)O)C[C@H]2CCCC[C@@H]21,4.8
COC(=O)C1=C(C(=O)OC)[C@@H]2N(C)c3ccc(OC)cc3[C@@]23C[C@@H](C(=O)OC)N(S(=O)(=O)c2ccc(C)cc2)C3=N1,-1.0
CCC/C=C(\CCC)C(NC(=O)c1cccs1)c1ccc(C(=O)OC)cc1 (stereo unspecified),-12.3
CC1O[C@@H](Oc2c(-c3ccc(O)c(O)c3)oc3cc(O)cc(O)c3c2=O)C(O)C(O)C1O (stereo partly specified),15.4
COC(=O)CNC(=O)[C@@]1(C)C=C[C@@H](Cc2ccccc2)N1C(=O)OC,5.7
Nc1c2ccccc2nc2c(O)cccc12,2.4
COC(=O)NC(CCc1ccccc1)C(C(=O)OC)C(=O)OC (stereo unspecified),-15.3
C/C(=C\C1CCCCC1)C(NC(=O)c1cccnc1)c1ccc(-c2ccccc2)cc1 (stereo unspecified),-5.7
C=CCC(Nc1ccc(OC)cc1)(C(=O)OCC)c1ccccc1 (stereo unspecified),-1.2
Cc1cccc(C)c1NC(=O)[C@H](C)N,7.2
CC#C[C@@]1(O)CC[C@H]2[C@@H]3CCC4=CC(=O)CCC4=C3[C@H](c3ccc(N(C)C)cc3)C[C@]21C,0.9
Nc1ncnc2c1ncn2[C@@H]1O[C@H](COP(=O)(O)O)[C@@H](O)[C@@H]1O,-0.4
COc1ccc2c(c1)C(=O)[C@H](OC(=O)NCc1ccco1)[C@@H](c1ccc(OC)c(Br)c1)O2,-0.7
Cn1nnnc1SCC1=C(C(=O)O)N2C(=O)C(NC(=O)C(O)c3ccccc3)C2SC1 (stereo unspecified),7.7
COc1ccc(-c2nc(-c3ccccc3)c(NC(C)(C)C)o2)cc1,-4.5&7.2
Cc1ccc(S(=O)(=O)/C=C\C#N)cc1,4.8
CCCN1C[C@H](CSC)C[C@H]2c3cccc4[nH]cc(c34)C[C@@H]21,-7.8
C/C=C/C1=Cc2ccccc2C(C(C(=O)OC)C(=O)OC)N1C(=O)OC (stereo unspecified),-10.4
COc1cc2c(c(OC)c1OC)-c1ccc(OC)c(=O)cc1[C@H](NC(C)=O)CC2,-4.8&4.0
CN(C)CC[C@@H](c1ccccc1)c1ccccn1,8.7
COc1ccc(C(=O)/C=C/c2ccccc2)cc1,0.6
CC1CC(OC(=O)C(O)c2ccccc2)CC(C)(C)C1 (stereo unspecified),-6.9
CO[C@@]1(NC(=O)Cc2cccs2)C(=O)N2C(C(=O)O)=C(COC(N)=O)CSC21 (stereo partly specified),-9.2
NC(Cc1ccc(O)c(O)c1)C(=O)O (stereo unspecified),-6.9
Cc1ccc(C2CC(=O)Oc3ccc(C(C)(C)C)cc32)cc1 (stereo unspecified),0.2
CC(C)C[C@@H](CC(=O)N[C@@H](CCC(=O)O)CC(=O)O)NC(=O)[C@@H]1CCCC[C@H]1NC(=O)C[C@@H](NC(=O)C[C@H](Cc1c[nH]c2ccccc12)NC(=O)[C@@H]1CNCC[C@H]1N)C(C)C,0.3
COC(=O)C(C(=O)OC)[C@@H](NC=O)c1ccccc1,-8.1
C/C(=C\CO)CCO,2.0
COC(=O)[C@@H]1CC2=CC(=O)CC[C@]2(C)[C@@]23O[C@@H]2C[C@@]2(C)[C@H](CC[C@@]24CCC(=O)O4)[C@@H]13,-3.6
CCCC[C@@H]1C[C@H]1C(NC(=O)c1ccco1)c1ccccc1C(F)(F)F (stereo partly specified),-8.9

# Fetched by compound from above:
smiles,GLA inh pH 4.5
CCCC[C@@H]1C[C@H]1C(NC(=O)c1ccco1)c1ccccc1C(F)(F)F (stereo partly specified),-8.9
NC(Cc1ccc(O)c(O)c1)C(=O)O (stereo unspecified),-6.9

# Carrying on.
smiles,GLA inh pH 4.5
Cc1c(S(=O)(=O)O)oc2c1C(=O)C(=O)c1c-2ccc2c1CCCC2(C)C,0.8
Cc1cc2nc3c(=O)[nH]c(=O)nc-3n(C)c2cc1C=O,-7.9
CN1CCN(c2ccnc(-c3ccccc3C(F)(F)F)n2)CC1,-0.2
CCc1c2c(nc3cccc(C(C)C)c13)-c1cccc(=O)n1C2,?
CCC#CCOCC(=S)Nc1ccccc1,2.8
c1csc(CNc2ncncc2-c2ccc3c(c2)OCO3)c1,1.0
COc1ccc(/C(=C\C(=O)O)c2nccc3cc(OC)c(OC)cc23)cc1OC,6.0
C#CCCCCCCCCCCCc1ccco1,-0.8
CO[C@H]1OC[C@@]2(C)[C@@H]3C4=C(CN2C(=O)OC(C)(C)C)[C@H](C)[C@H](CO)[C@H](CO)[C@H]4CC[C@H]13,3.7
Clc1ccc(CC[C@H](Cn2ccnc2)Sc2c(Cl)cccc2Cl)cc1,-7.0
CCCCC/C=C\C/C=C\CCCCCCCCCC(N)=O,-1.6
NC(=O)c1ccc[n+]([C@@H]2OC(COP(=O)([O-])OP(=O)(O)OCC3OC(n4cnc5c(N)ncnc54)C(OP(=O)(O)O)C3O)C(O)C2O)c1 (stereo partly specified),2.7
C=C1C(C2(C)C=CC(=O)C(C)(C)C2CC(=O)OC)CC[C@@]2(C)C(c3ccoc3)OC(=O)C3OC132 (stereo partly specified),-2.3
COc1ccc2c(c1OC)OCC(c1ccc(OC)c(OC)c1OC)C2 (stereo unspecified),4.3
NC(=O)[C@@H]1CCCN1,0.3
CCOC(=O)CNC(=O)O[C@H]1C(=O)c2ccc(OC)cc2O[C@@H]1c1ccc2c(c1)OCO2,-13.6

# Assay outcomes (PubChem BioAssay)
